Screens (PubChem)
D2 PAM = Beta-Arrestin HTS for Positive Allosteric Modulators of the Human D2 Dopamine Receptor: Potentiators; DiscoveRx D2 beta-arrestin cells, luminescence, 90 min; 100% = 57 uM dopamine signal; potentiation, % (concentration not given with the values); actives 0.23% (n = 360,000); AID 624464, 2012; active = potentiation of 50% or more; inconclusive = 30% to 50%; inactive = 30% or less;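 further: compound concentration not given in the record; tested on top of an EC20 dose of dopamine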
Target sequence (P14416 whole entry, looked up): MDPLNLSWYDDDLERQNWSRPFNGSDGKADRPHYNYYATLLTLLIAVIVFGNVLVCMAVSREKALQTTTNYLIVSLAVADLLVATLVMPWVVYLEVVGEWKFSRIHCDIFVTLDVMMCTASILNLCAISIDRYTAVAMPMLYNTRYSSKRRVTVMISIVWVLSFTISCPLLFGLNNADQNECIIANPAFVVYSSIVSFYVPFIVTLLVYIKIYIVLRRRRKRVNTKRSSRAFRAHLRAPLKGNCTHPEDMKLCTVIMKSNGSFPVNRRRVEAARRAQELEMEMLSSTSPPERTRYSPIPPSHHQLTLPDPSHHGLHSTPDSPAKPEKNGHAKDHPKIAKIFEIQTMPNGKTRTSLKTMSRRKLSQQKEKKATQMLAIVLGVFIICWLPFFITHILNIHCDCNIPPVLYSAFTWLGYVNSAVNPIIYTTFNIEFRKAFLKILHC
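PathHunter D2 cells, attached overnight at 37 deg C, received compound in DMSO plus dopamine at EC20 (50 nM final) for 90 min at 37 deg C. Beta-arrestin recruitment was read as luminescence after 1 h with detection reagent at ambient temperature.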
PINK1 modulator = A Quantitative High throughput Screen to Identify Chemical Modulators of PINK1 Expression | PINK1 immunofluorescence, high-content cytometry, 24 h | Potency, µM (highest dose often 76.6 µM), inactives show top-dose activation (PINK1 increase), most hits filed as activators | actives 0.2% (n = 410,000) | AID 624263, 2012; active = well fitted activation curve with a large enough effect; inconclusive = small, poorly fitted or top-dose-only effect; inactive = flat fitted curve, though single readings scatter; cell line not stated here;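 further: potency means the concentration at half of the fitted maximal effect; % of control where 0% means no effect; nearly all actives have a fitted effect of over 65% in size; a mitochondrial uncoupler was the plate control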
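Cells are seeded, rested 12 hours, then given compound at five concentrations or DMSO for 24 hours. After fixation, blocking and antibody staining, PINK1 amount and mitochondrial localization are scored; CCCP serves as control.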
TRPML1 agonist = qHTS for Agonists of the Human Mucolipin Transient Receptor Potential 1 (TRPML1); Mucolipin-1 (Homo sapiens), Q9GZU1; TRPML1-expressing cells, Ca2+ dye fluorescence, FDSS; host cell line not named in the record; reference of the full effect not given here; activation, % (test concentration not listed); actives 0.12% (n = 410,000); in the data active = activation above about 50%; inconclusive = about 30% to 50%; inactive = below about 30%; further: 0% is about no effect; the text of the record puts the active cut at 80%
Target sequence (Q9GZU1 whole entry, looked up): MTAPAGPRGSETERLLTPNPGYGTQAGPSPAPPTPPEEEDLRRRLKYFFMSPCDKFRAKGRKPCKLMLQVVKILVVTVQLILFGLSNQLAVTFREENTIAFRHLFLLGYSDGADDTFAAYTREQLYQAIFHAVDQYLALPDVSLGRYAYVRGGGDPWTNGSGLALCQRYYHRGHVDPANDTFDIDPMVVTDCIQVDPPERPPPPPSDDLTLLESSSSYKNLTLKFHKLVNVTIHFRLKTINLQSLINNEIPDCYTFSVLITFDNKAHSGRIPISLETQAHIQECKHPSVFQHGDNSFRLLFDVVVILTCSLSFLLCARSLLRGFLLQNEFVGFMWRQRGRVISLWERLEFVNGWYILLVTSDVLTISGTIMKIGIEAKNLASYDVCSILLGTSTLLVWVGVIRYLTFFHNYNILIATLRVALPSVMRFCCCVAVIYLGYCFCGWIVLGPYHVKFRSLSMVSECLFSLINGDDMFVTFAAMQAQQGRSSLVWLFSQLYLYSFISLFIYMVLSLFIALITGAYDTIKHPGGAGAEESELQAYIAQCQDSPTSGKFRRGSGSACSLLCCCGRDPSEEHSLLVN
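TRPML1-DL cells, Tet-induced overnight (~16 h, 37 degrees C), loaded 45-90 min at room temperature with Ca8 no-wash calcium dye plus quencher. FDSS fluorescence: 10 s baseline, compound pin-transfer, 110 s agonist read, then EC80 54-4 (4uM final) and 110 s antagonist read.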
CtBP-E1A blk = qHTS Assay for Inhibitors of the CtBP/E1A Interaction; activity change, % (concentration not given with the values); CtBP / adenovirus E1A interaction (AlphaScreen); actives 0.49% (n = 340,000); AID 651724, 2012; AlphaScreen GST-E1A/His-CtBP binding, 1536-well; hits give low values; control for the full effect not named in the record; in the data active means activity change below about -65%; inconclusive means about -30% to -65%; inactive means above about -30%; further: on the % scale 0 is the no-effect control and ±100 the full control effect
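Protein mix (5X: 125 nM each GST-E1A, His-CtBP) was incubated with pinned compound 2 h at 37 deg C in dark, in 50 mM Tris pH 8.0 buffer with 300 mM NaCl. Glutathione donor and nickel acceptor beads followed; AlphaScreen signal read after 1 h.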
D2 agonist = Beta-Arrestin HTS for Positive Allosteric Modulators of the Human D2 Dopamine Receptor: Agonists. activation, % (concentration not given with the values). actives 0.084% (n = 360,000). AID 624465, 2012. DiscoveRx PathHunter D2 beta-arrestin, luminescence, 90 min; 100% = 57 uM dopamine signal. D(2) dopamine receptor (Homo sapiens), P14416; in the data active = activation above about 40%; inconclusive = about 15% to 40%; inactive = below about 15%; further: compound concentration not given in the record; the text of the record calls up to 30% inactive
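DiscoveRx PathHunter D2 beta-arrestin cells (2,100/well) attached overnight, then compound-stimulated 90 min at 37 C in HBSS/10 mM HEPES/0.1% Tween-20 buffer; beta-galactosidase complementation read by luminescence after 1 h at ambient temperature. Dopamine 57 uM final (EC100) as control.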
Six1-Eya2 blk = qHTS Assay for Inhibitors of the Six1/Eya2 Interaction. Homeobox protein SIX1 (Homo sapiens) + Protein phosphatase EYA2 (Homo sapiens), …. AlphaScreen GST-Six1/His-Eya2 binding, biochemical; hits give low values; control for the full effect not named in the record. activity change, % (test concentration not listed). actives 0.56% (n = 360,000). AID 651725, 2012; in the data active = activity change below about -65%; inconclusive = about -30% to -65%; inactive = above about -30%; further: on the % scale 0 is the no-effect control and ±100 the full control effect; compound concentration not given in the record
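Homogeneous AlphaScreen proximity assay pairing GST-Six1 with His-tagged Eya2 (added as 5X mix: 250 nM and 500 nM) in 50 mM Tris pH 8.0, 300 mM NaCl, 1 mM TCEP. Glutathione donor and nickel acceptor beads; 1 h, 37 °C, dark.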
The depositor's hits bear a star; ? = inconclusive; . = no result given; & = joins results of further samples; [ ] = another dose, or the depositor's remark.

SMILES	D2 PAM	PINK1 modulator	TRPML1 agonist	CtBP-E1A blk	D2 agonist	Six1-Eya2 blk
O=C1C(Cl)=C(N2CCCCCC2)C(=O)N1c1ccc(Br)cc1	-17	1.5%	3.1	.	0.9	27
Cc1ccc(N(CC(=O)NCCc2ccc(Cl)cc2)S(=O)(=O)c2c(C)noc2C)cc1	-8	4.9%&6.3%	1.4&-0.3	-10	1.7	9
CCN1CCc2c(C#N)c(NCc3ccccc3)nc(NCCO)c2C1	-19	-3.3%	-0.5	0	-0.8	0
CC(=O)Nc1ccc(NC(=O)CN(C)CC(=O)Nc2ccccc2Br)cc1	-2	0.9%	-0.7	4	-6.1	0
C[C@H](NC(=O)c1cccc([N+](=O)[O-])c1)C(=O)OCC(=O)c1ccccc1Br	-8	0.0%	1.1	0	-9.6	-6
CCC(=O)NC1=C(Nc2ccc(N)cc2)C(=O)c2ccccc2C1=O	4	-0.4%	-1.3	?	-1.3	?
CCn1c(O)c2ccc(C(=O)N=NC(=O)c3ccccc3)cc2c1O	-8	3.5%	0.2	14	1.7	1
COc1ccc2sc(-c3ccccc3OC)c(-c3ccc(OCCN(C)C)cc3)c2c1	.	-1.2%	0.2	-27	4.3	-26
O=C(Nc1ccccc1)c1cc(-n2cnnc2)ccc1Cl	-5	9.9%[38.3 µM]	0.3	-3	-0.2	2
COC(C[C@H](O)C[C@@H](O)[C@H](C)OCc1ccccc1)OC	-2	-0.1%	-0.3	6	-1.9	-4
O=C(CN1C(=O)S/C(=C\c2ccc(F)cc2)C1=O)NC1C=CS(=O)(=O)C1 (stereo not given)	-8	0.9%	0.6	-4	-4.3	3
CCCn1nc(NC(=O)c2cccs2)c2cc3cc(OC)ccc3nc21	11	-0.3%	-0.2	42	4.6	49
Cc1cccc(NC(=O)CC(C)(C)C)c1	-1	0.2%[38.3 µM]	1.6	67	-1.3	29
CNC(=O)OC(C)CNS(=O)(=O)c1ccc(C)cc1 (stereo not given)	-8	-4.4%[38.3 µM]	0.4	-20	-0.7	1
C=C(C)[C@@H]1CC=C(CO)CC1	15	0.3%	-0.9	1	10	0
O=C(COc1ccccc1)Nc1ccc(S(=O)(=O)NCc2ccco2)cc1	-7	-2.7%	1.6	-10	1.6	-6
O=C(OCc1nnc(-c2ccc([N+](=O)[O-])cc2)o1)C1CC(=O)N(CCc2ccccc2)C1 (stereo not given)	-13	5.2%	0.7	2	0.4	-14
CCC(Sc1nc2c(c(=O)n1CC)SC(C)C2)C(=O)OC (stereo not given)	1	-0.9%	1.7	-22	-6.3	0
COc1ccc(/C=C/C(=O)O)cc1S(=O)(=O)NCc1cccnc1	14	1.2%	-1.1	-2	-0.5	-4
COc1ccc(N2C(=O)C3CCCN3C2c2cccc(OC)c2)cc1 (stereo not given)	1	2.0%	0.6	10	0.2	4
O=C(NC1CCCCC1)C(c1ccc(F)cc1)N(CCN1CCOCC1)C(=O)c1ccc(-c2ccccc2)[nH]1 (stereo not given)	-12	3.6%	1.0	-2	-3.3	4
CC(C)N1CCC(C)(C(=O)Nc2ccc(Cl)c(Cl)c2)C1 (stereo not given)	-3	0.1%	0.1	0	?	1
COCCCn1c(C(=O)NC2CCCCC2C)cc2c(=O)n3cccc(C)c3nc21 (stereo not given)	-9	1.2%	-0.3	.	-3.6	5
O=C(N/N=C/c1ccc(OCC(=O)N2CCOCC2)cc1)c1ccccc1Cl	0	5.0%	0.7	.	13	7

Profiles as entered above. Screens in order: D2 PAM, PINK1 modulator, TRPML1 agonist, CtBP-E1A blk, D2 agonist, Six1-Eya2 blk
`CCN1CCc2c(C#N)c(NCc3ccccc3)nc(NCCO)c2C1` is entered as -19, -3.3%, -0.5, 0, -0.8, 0
`COC(C[C@H](O)C[C@@H](O)[C@H](C)OCc1ccccc1)OC` is entered as -2, -0.1%, -0.3, 6, -1.9, -4
`COCCCn1c(C(=O)NC2CCCCC2C)cc2c(=O)n3cccc(C)c3nc21` (stereo not given) is entered as -9, 1.2%, -0.3, ., -3.6, 5
`O=C(Nc1ccccc1)c1cc(-n2cnnc2)ccc1Cl` is entered as -5, 9.9%[38.3 µM], 0.3, -3, -0.2, 2
`COc1ccc(/C=C/C(=O)O)cc1S(=O)(=O)NCc1cccnc1` is entered as 14, 1.2%, -1.1, -2, -0.5, -4

Remaining list, next part:
SMILES	D2 PAM	PINK1 modulator	TRPML1 agonist	CtBP-E1A blk	D2 agonist	Six1-Eya2 blk
Cc1c(NC(=O)Nc2c(Cl)cccc2Cl)c(=O)n(-c2ccccc2)n1C	0	-0.6%	1.7	.	1.6	2
Cc1nc(NCCc2ccc(F)cc2)c2nnn(Cc3ccccc3)c2n1	4	11%	-0.6	6	1.3	6
C/C(=N/NC(=O)CSCc1ccc(Cl)cc1)c1cccc(NC(=O)c2ccccc2)c1	11	.	0.8	4	2.3	-1
CCOc1ccc(C(CC(=O)O)NS(=O)(=O)c2ccc(C)cc2)cc1OC (stereo not given)	2	-0.5%	-0.9	5	-2.1	-1
Cc1ccc(S(=O)(=O)NCC(=O)OCC(=O)N(C)C2CCCCC2)cc1	0	-0.1%	-0.2	6	0.6	-2
O=C(c1ccc(Cl)c(Cl)c1)N1CCOCC1	0	-1.1%	1.3	2	-3.9	1
CCOC(=O)C1=C(C)N(CCO)C(=O)NC1c1ccccc1 (stereo not given)	-5	-8.7%[38.3 µM]	1.6	4	-3.6	3
CC(NC(=O)COC(=O)c1c[nH]c2ccccc12)c1ccccc1 (stereo not given)	3	-0.6%	-0.2	-16	-0.8	21
COc1ccc(S(=O)(=O)Nc2ccc3c(c2)COC3=O)cc1OC	-2	.	0.0	-4	3.4	6
COc1ccc2c(c1)CC(C1(O)C(=O)N(C)c3ccccc31)C2=O (stereo not given)	7	-2.4%	-0.7	2	0.3	-3
CCOCCSc1n[nH]c(=O)n1CCc1ccccc1	-7	-0.6%	1.3	-5	0.6	7
NC(=O)N/N=C/c1cccc(C(F)(F)F)c1	-5	0.0%	-0.5	3	-0.7	13
CC(=O)N1CCC(N(CCN2CCOCC2)C(=S)Nc2ccc(C)c(C)c2)CC1	-5	2.3%	-0.7	2	-4.1	14
O=C(COC(=O)CSc1cccc2cccc(Cl)c12)Nc1ncc(C(F)(F)F)cc1Cl	-9	-2.7%	2.3	-1	3.6	-1
Cc1cc(S(=O)(=O)Nc2cccc(Cl)c2)c(C)s1	1	6.5%	0.6	-2	5.1	-10
Cc1cc(C)nc(CCNC(=O)c2cc(COc3ccccc3)on2)n1	-3	-0.7%	0.6	4	-2.4	-1
Cn1nc(C(=O)OCc2ccc(F)cc2)c2ccccc2c1=O	-3	-3.0%	0.8	-24	0.2	-20
COc1ccc(CC(=O)NNC(=S)NC(=O)c2cc(OC)c(OC)c(OC)c2)cc1	-26	6.5%	0.1	-3	-5.9	-5
O=C(COC(=O)CCC(=O)c1cccs1)NCc1cccs1	-6	-3.5%	-0.8	14	-0.9	-3
O=C(CNC(=O)c1ccco1)NCC(=O)OCC(=O)c1ccc(Cl)c([N+](=O)[O-])c1	-31	-0.3%	-0.3	.	-28	-6
CC(=O)Nc1ccc(C(=O)NCC(c2ccco2)N(C)C)cc1 (stereo not given)	1	-0.9%	-0.4	9	-7.0	5
COc1ccc(Cc2n[nH]c(=S)n(N)c2=O)cc1	1	3.5%	0.3	6	-1.4	5
CCOC(=O)CC(=O)CSc1nc(-c2ccccc2)cc(-c2ccccc2)c1C#N	9	-2.2%	1.4	8	-4.0	14
CC(C)NC(=O)COC(=O)/C=C/c1ccco1	4	-1.6%	-0.6	-11	-5.7	-9
COc1ccc(Nc2nc(NCCCN3CCOCC3)nc(N)c2[N+](=O)[O-])cc1	-9	1.9%	-0.4	-4	1.4	-4
COc1ccc(C2=CCCCCC2)cc1OC	0	6.3%	-0.5	-7	-3.3	4
COc1ccc(CCN(C)C(=O)N2CCOCC2)cc1OC	-1	1.5%	0.2	4	-3.1	4
Cc1cc(C)c(-c2csc(NC(=O)c3n[nH]c(=O)c4ccccc34)n2)c(C)c1	7	?	1.0	-3	0.6	9
COc1cc(OC)cc(C(=O)NC(C)CNc2ccc(Cl)cc2[N+](=O)[O-])c1 (stereo not given)	-11	0.3%	2.6	.	-2.1	-24
Cc1cc(NC(=O)CC23CC4CC(C2)CC(CC(=O)Nc2cc(C)on2)(C4)C3)no1	-15	1.6%	-0.9	1	-2.0	-4
O=C(CCCC(=O)N(CC(=O)NC1CCCCC1)c1ccc(F)cc1)Nc1ccccn1	-7	-2.4%	0.7	0	-2.6	2
C[C@H](CO)N1C[C@H](C)[C@H](CN(C)CC2CCCCC2)Oc2ccc(NS(=O)(=O)c3ccc(F)cc3)cc2CC1=O	-9	-1.1%	-0.1	-5	-4.2	-7
O=C(CSc1nc2ccsc2c(=O)n1NC(=O)c1ccccc1)NCc1ccco1	-4	4.5%[38.3 µM]	0.2	?	-0.5	-28
CC1(C)CC2CC(C)(CN2S(=O)(=O)c2ccc(C(=O)Nc3cccc(S(=O)(=O)N4CCOCC4)c3)cc2)C1 (stereo not given)	-3	-1.1%	1.8	-11	0.8	17
NC(=O)Cn1c(=O)n(C2CCCCC2)c(=O)c2c3c(sc21)CCCCC3	-5	-0.9%	3.0	-17	-1.0	0
COc1ccc(/C=N/n2c(C3CCCCC3)n[nH]c2=S)c(OC)c1	-9	2.0%	0.1	.	4.4	-4
COc1ccc(CN(C)C(=O)C(Cc2ccccc2)NC(=O)c2ccccc2)c(OC)c1OC (stereo not given)	-9	3.2%	-1.1	0	7.0	-2
CS(=O)(=O)c1ccc(CNC(=O)C2(C(F)(F)F)C/C(=C\Cc3ccccc3)CCCO2)cc1 (stereo not given)	-6	-0.5%	3.5&2.2	-18	-2.8	-1
COc1cc(/C=N/O)ccc1OCc1ccc(C(=O)O)cc1	-20	-0.4%	1.1	-3	-2.2	-12
COc1cccc(-c2nnc(SCC3CNC(=O)O3)n2-c2ccc(Cl)cc2)c1 (stereo not given)	0	2.1%	-0.2	8	-3.2	11
CCCCN(CCCC)S(=O)(=O)c1ccc(N2CCCC2=O)c([N+](=O)[O-])c1	-8	-0.8%	1.5	-1	-3.4	-1
O=C(CSc1nnc(-c2ccccc2Cl)o1)N1CCCCC1	-3	0.0%	-0.2	10	-4.1	4
Cn1c(=O)c2[nH]c(Cc3cccc(O)c3)nc2n(C)c1=O	2	4.8%	0.4	-24	-0.9	-17
O=C(CN1C(=O)NC2(CCCC2)C1=O)Nc1cc(C(F)(F)F)ccc1N1CCOCC1	6	0.0%	0.7	-7	-6.7	12
